# Screens (PubChem BioAssay)
# Yeast UUG start: alters start codon recognition fidelity in yeast; 0.13% of 350,000 active; activity score, % at 18.7 µM; S. cerevisiae UUG-firefly luciferase reporter, luminescence/redox ratio;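 active = replicate mean at a twofold rise or more, about +100% in these data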;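 also: firefly luciferase made from a UUG start codon reports start codon fidelity; reporter light over untreated wells divided by growth signal over untreated wells; some hits fall short of that in this replicate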
# CSC inhib: cancer stem cell inhibition; cancer stem cell-like cells viability, luminescence; inhibition, % at 7.5 µM; 1.1% of 300,000 active;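 active = mean at 75% or more and at least half the replicates too; inconclusive = mean and replicates disagree; tested in HMLE shEcad cells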;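 also: 0% = median of negative and 100% = median of positive control wells; the first replicate is given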
# MT1-MMP act inh: inhibitors of human MT1-MMP activation | P50281 | HT1080 RFP-PRO-GFP cells, GFP/RFP ratio fluorescence, overnight; percent of plate control window, DMSO zero | GFP/RFP ratio change, % at 20 µM | 0.061% of 360,000 active;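 active = GFP/RFP ratio change of at least 30% with cell ATP level not reduced by more than half and red fluorescence within 50% of control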; also: strong numbers were not always called active
#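 Assay system: HT1080 RFP-PRO-GFP cells. Benchmarks: DMSO vehicle wells and RFP-L50D-GFP reporter cell wells. Times: overnight cell settling, then overnight compound exposure, 37 °C, 5% CO2. Compound: 20 µM single dose, 1% DMSO. Read-out basis: GFP/RFP fluorescence ratio.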
# Rce1 inh: inhibitors of yeast Ras-converting enzyme; Q03530; calls only; yeast membranes, quenched prenylated peptide cleavage fluorescence; AID 2563; 0.27% of 290,000 active;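 active = fall in fluorescence gain of 50% or more versus controls, with final raw signal at or below 3038400; inconclusive = same 50% fall but final raw signal above 3038400; inactive = fall in fluorescence gain under 50%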;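 also: plate controls were neutral control wells for no effect and wells lacking membranes for full effect; tested at 10 µM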
# Target sequence (Q03530 whole entry, looked up): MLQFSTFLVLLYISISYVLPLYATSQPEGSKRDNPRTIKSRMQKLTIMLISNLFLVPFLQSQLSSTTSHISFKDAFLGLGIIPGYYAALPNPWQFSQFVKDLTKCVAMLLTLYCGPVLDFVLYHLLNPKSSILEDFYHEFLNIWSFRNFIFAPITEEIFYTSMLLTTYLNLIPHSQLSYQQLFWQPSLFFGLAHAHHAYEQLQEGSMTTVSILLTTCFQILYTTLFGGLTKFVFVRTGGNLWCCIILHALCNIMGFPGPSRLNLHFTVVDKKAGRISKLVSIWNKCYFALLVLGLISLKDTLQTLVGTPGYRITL
# eIF4H inh: inhibitors of RNA binding by human eIF4H. 0.94% of 290,000 active. eIF4H fluorescence polarization binding assay. inhibition, % at 35 µM. AID 2012;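 active = 50% or more with normal probe brightness, or confirmed in later tests; inconclusive = above 50% with abnormal brightness, or retests that disagree; inactive = below 50% or failed in later tests; about a fifth of its hits are not listed in these tables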;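 also: calls also rest on retests at 20 µM and on dose response follow-up; 0% = protein and probe with vehicle and 100% = probe without protein; strong numbers were not always called active; many hits fall short of the cut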
# PABP polyA inh: PABP-poly(A) binding inhibition | PABP-poly(A) RNA binding, fluorescence polarization | inhibition, % at 35 µM | 1% of 290,000 active;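 active = 50% or more with normal probe brightness, or confirmed in later tests; inconclusive = above 50% with abnormal brightness, or retests that disagree; inactive = below 50% or failed in later tests; about a fifth of its hits are not listed in these tables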;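 also: calls also rest on retests at 20 µM and on dose response follow-up; controls were probe without protein and protein plus probe with vehicle; some compounds called inactive have numbers as strong as hits; many hits fall short of the cut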
# HIV Env fusion: blocks HIV Env-driven cell-cell fusion; HeLa-JRFL Env/CEM21 cell fusion, luciferase; AID 651610; inhibition, % at 12.3 µM; 1.1% of 360,000 active;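 active = mean replicate inhibition score of at least 50 and every replicate individually at or above 50; inconclusive = only one of the two criteria met; inactive = mean below 50 and not all replicates reaching 50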;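 also: 0% = plate neutral controls and 100% = maraviroc near 300 nM; one replicate is shown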
# eIF4H inh retest: second read-out of eIF4H inh, no call of its own (marks repeat the call); inhibition, %; compound at 20 µM; confirmation average;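 mean of two retest wells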
# PABP polyA inh retest: also measured in PABP polyA inh; calls as there; inhibition, %; compound at 20 µM; confirmation repeats;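 mean of two retest wells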
# MT1-MMP act inh RFP: further read-out of MT1-MMP act inh, marked with its call; RFP signal change, %; measured here: RFP expression control read;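 0 = vehicle wells; hits needed this value within 50% of zero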
# Active calls of the source: *; i = inactive; ? = inconclusive; / = not tested or not shown. Not all compounds are listed; count on the stated rates, not on these rows.
SMILES,Yeast UUG start,CSC inhib,MT1-MMP act inh,MT1-MMP act inh RFP,Rce1 inh,eIF4H inh,PABP polyA inh,HIV Env fusion,others
CCOc1ccccc1NC(=O)CSc1nc2cccnc2n1C,-11.9,8.9,-7.5,-4.3,i,-2.1,-1.4,26.5,
O=C(Nc1cc(Br)ccc1O)c1cc(-c2cccs2)on1,-3.5,5.4,-1.0,0.3,i,-4.2,-11.4,-16.3,
CCC(=O)NC(=S)Nc1ccc(NC(=O)c2ccc(C)c([N+](=O)[O-])c2)cc1,/,-0.7,1.0,-6.0,i,-1.7,3.3,2.4,
Cc1ccc(-c2ccc(=O)n(CCC(=O)N3CCN(Cc4ccccc4)CC3)n2)cc1,-12.4,-6.6,-1.6,-2.4,i,1.3,1.6,2.9,
CCn1ccc2c(OCC(=O)NCCc3ccc(OC)c(OC)c3)cccc2c1=O,5.5,-5.0,1.7,-2.1,i,/,/,-448.2,
C/C(COc1ccccc1)=N\NC(=O)c1nnn(-c2nonc2N)c1-c1ccc(C)cc1,-6.0,/,-1.0,6.5,/,/,/,-10.9,
Brc1ccc(N/N=C(/N=Nc2nn[nH]n2)c2ccccc2)cc1,/,-10.3,17.8,-14.0,/,8.7,2.4,6.1,
NS(=O)(=O)c1ccc(N=Cc2ccc(Br)s2)cc1,-9.6,3.6,3.9,8.7,i,-3.5,-1.7,5.2,
CC(C)Sc1cc(Cl)nc(NC(=O)Nc2ccccc2)n1,-17.6,19.4,-0.3,3.1,i,-11.2,-16.8,8.5,
COc1cc(SC)ccc1C(=O)NCCCOC(C)C,15.5,4.9,1.6,2.3,i,-8.2,-3.6,/,
CC(C)CNC(=O)CC(=O)N/N=C/c1ccc(F)cc1,-12.4,-6.7,1.2,2.7,i,-7.1,-18.6,/,
O=C(CSc1nnc(NC(=O)c2cc(Br)ccc2Cl)s1)NCC1CCCO1 (centres undefined),-1.7,-6.8,-1.6,-0.4,i,-4.7,4.3,-9.3,
Fc1ccc(CNC(=S)NC2CCCCCC2)cc1,-33.2,-9.8,2.6,-5.9,i,-4.6,2.1,23.2,
Cc1sc2c(c1C)CN(CCN1CCOCC1)CN2C(=O)c1ccccc1,-8.2,-8.7,-0.7,1.5,i,-10.0,2.8,-50.1,
O=C(O)c1ccccc1Sc1ccccc1S(=O)(=O)NC1CCCCC1,-1.2,-8.2,-3.2,-2.9,i,-9.2,1.7,10.9,
CC(Nc1c([N+](=O)[O-])c(=O)oc2ccccc12)C(Cl)c1ccccc1 (centres undefined),/,/,-3.3,-2.4,i,4.7,-4.2,/,
COc1cccc(CNC(=O)Cn2cc3c(n2)CCCCC3)c1,-16.8,4.6,2.1,-1.3,i,-9.9,2.4,-24.5,
CC(=O)Nc1ccc(C(=O)COC(=O)c2nc3nc(C)cc(C)n3n2)cc1,-10.5,/,0.5,3.5,/,/,/,-1.4,
CCOc1ccc(S(=O)(=O)Nc2ncn[nH]2)cc1,-22.6,/,1.4,2.4,i,0.6,4.3,-5.2,
COc1cc2nc(CN(C)CC(=O)Nc3ccc(N4CCOCC4)cc3)[nH]c(=O)c2cc1OC,-8.6,/,/,/,/,-2.6,6.3,/,
CC(C)N1CCc2c(sc(NC(=O)CCS(=O)(=O)c3ccccc3)c2C(N)=O)C1,-8.2,-3.1,-3.6,1.9,i,-14.0,2.1,14.5,
Cc1c(N2C(=O)C(=O)/C(=C(/O)c3ccc(Cl)cc3)C2c2ccccc2)c(=O)n(-c2ccccc2)n1C (centres undefined),/,-1.9,3.0,4.2,i,-8.2,-4.9,-7.9,
COc1ccc(Nc2ncc(F)c(N3CCOCC3)n2)cc1,/,-4.4,-12.2,-5.6,i,-0.3,-4.5,11.5,
CN1CCN(C2=Nc3c(Cl)cc(Cl)c4cccc2c34)CC1,12.0,-0.5,-28.3,-2.9,i,?,4.8,0.9,
COc1ccc(-c2nnc(SCC(=O)NC3CC3)o2)c(OC)c1,-9.1,/,2.6,4.0,/,/,/,-1.3,
# The listing continues:
SMILES,Yeast UUG start,CSC inhib,MT1-MMP act inh,MT1-MMP act inh RFP,Rce1 inh,eIF4H inh,PABP polyA inh,HIV Env fusion,others
CC(C)(C)NC(=O)CN(Cc1cccs1)C(=O)CNS(=O)(=O)c1ccccc1,-15.2,8.4,-1.9,3.4,i,-6.6,1.5,-0.6,
C=CCn1c(SCC(=O)Nc2ccc(-c3nc4ccc(C)cc4s3)cc2)nnc1-c1ccccc1,-1.3,49.5,-12.2,-6.6,i,47.4,-7.3,/,
O=[N+]([O-])c1ccc(Sc2n[nH]c(-c3ccncc3)n2)nc1,/,5.7,0.6,3.1,i,2.1,-12.5,13.5,
CC1(Cc2cccc(F)c2)C(=O)Nc2ccc(OC(F)(F)F)cc21 (centres undefined),-9.7,/,-5.4,-6.9,/,/,/,35.5,
Cc1cccc(CCN2C(N(C)C)=NC[C@@H]2C)c1,-15.2,6.1,1.6,1.4,/,/,/,-11.4,
O=P(COCCO)(c1ccccc1)c1ccccc1,-9.4,1.4,5.4,6.7,i,-2.4,2.7,/,
COC(=O)[C@]1(CC(C)C)N[C@H](c2ccc(SC3CCCCC3)cc2)[C@@H]2C(=O)N(C)C(=O)[C@@H]21,3.5,/,-0.1,-10.0,/,/,/,15.5,
Cc1ccc(S(=O)(=O)NCc2ccc(C(=O)NCCN(Cc3ccccc3)C(C)C)cc2)cc1,3.2,14.6,-7.2,-10.5,i,3.9,6.9,2.7,
C=CCNC(=O)CN1CCC(O)(c2ccc(F)cc2)CC1,/,-0.2,9.8,2.0,i,0.0,-13.1,/,
Cc1ccnc(NC(=O)CCC(=O)c2cccs2)c1,-55.5,23.5,1.4,-2.8,i,/,/,40.2,
O=C(Nc1ccc(-n2cccn2)cc1)C1CCCCN1Cc1cccc2cccnc12 (centres undefined),-7.9,7.0,-1.5,2.0,i,-10.9,-3.3,18.7,
COc1ccc(-c2cn3ccccc3n2)cc1OC,-18.9,23.0,10.3,1.4,?,-2.5,20.7,-154.8,
O=C(c1cccc(S(=O)(=O)Nc2ccc(F)cc2)c1)N1CCCC1,-14.1,/,1.5,-0.1,/,/,/,-7.9,
C=CCNC(=O)c1oc2ccc(S(=O)(=O)N3CCCCC3)cc2c1C,9.9,-14.4,3.6,-0.7,i,-1.4,3.3,-4.3,
CCOc1ccc(NC(=O)CN(C)C(=O)c2ccc(OCC(=O)N3CCOCC3)c(OC)c2)cc1OCC,-2.4,/,0.4,3.9,/,/,/,0.1,
COC(=O)c1ccc(Oc2c(Cl)cccc2[N+](=O)[O-])cc1,-5.2,0.3,0.6,4.2,i,1.2,-13.7,12.9,
CCc1cccc2sc(NC(=O)c3ccc(N4C(=O)CCC4=O)cc3)nc12,-0.1,/,1.8,4.4,i,-1.8,1.6,-6.3,
CC(O)/C=C/c1cccc[n+]1C (centres undefined),-18.1,-3.0,-1.8,2.5,/,14.1,84.7*,/,eIF4H inh retest=9.5;PABP polyA inh retest=70.1*
S=C(Nc1ccc(Oc2ccccc2)cc1)N1CCN(c2ccccn2)CC1,/,39.6,2.8,-1.0,i,-9.8,-0.7,20.9,
CC1CCCCN1CCCNC(=O)CN1C(=O)c2cccnc2Oc2ccccc21 (centres undefined),/,-9.5,-2.2,0.1,i,/,/,-26.6,
COc1ccc2c(c1)[nH]c1c(=O)n(/N=C/C3C(C)C=C(C)CC3C)c(=O)[nH]c12 (centres undefined),/,100.4*,5.9,2.1,i,-1.2,-1.0,-54.6,
O=C(CCN1C(=O)c2ccccc2S1(=O)=O)Nc1ccccc1,-9.4,/,-0.9,-0.7,i,-2.7,8.0,22.0,
COCCOC(=O)/C(=C\c1cc(C(C)(C)C)c(O)c(C(C)(C)C)c1)C(C)=O,12.7,43.7,-6.6,-1.1,i,-1.7,3.3,19.5,
Cc1ccc(C)n1C1CCS(=O)(=O)C1 (centres undefined),-12.1,4.7,-1.9,5.3,i,19.8,9.7,/,
CCCCNC(=O)c1onc(CSc2ccncc2)c1C(=O)NCCCC,-9.6,1.5,-6.9,-4.3,i,-2.8,5.6,9.1,

# Quoted at random: 5 compounds from above
SMILES,Yeast UUG start,CSC inhib,MT1-MMP act inh,MT1-MMP act inh RFP,Rce1 inh,eIF4H inh,PABP polyA inh,HIV Env fusion,others
COCCOC(=O)/C(=C\c1cc(C(C)(C)C)c(O)c(C(C)(C)C)c1)C(C)=O,12.7,43.7,-6.6,-1.1,i,-1.7,3.3,19.5,
CC1CCCCN1CCCNC(=O)CN1C(=O)c2cccnc2Oc2ccccc21 (centres undefined),/,-9.5,-2.2,0.1,i,/,/,-26.6,
C=CCn1c(SCC(=O)Nc2ccc(-c3nc4ccc(C)cc4s3)cc2)nnc1-c1ccccc1,-1.3,49.5,-12.2,-6.6,i,47.4,-7.3,/,
COC(=O)c1ccc(Oc2c(Cl)cccc2[N+](=O)[O-])cc1,-5.2,0.3,0.6,4.2,i,1.2,-13.7,12.9,
CCc1cccc2sc(NC(=O)c3ccc(N4C(=O)CCC4=O)cc3)nc12,-0.1,/,1.8,4.4,i,-1.8,1.6,-6.3,

# Continuation.
SMILES,Yeast UUG start,CSC inhib,MT1-MMP act inh,MT1-MMP act inh RFP,Rce1 inh,eIF4H inh,PABP polyA inh,HIV Env fusion,others
Cc1cc(NS(=O)(=O)c2ccc(N)cc2)no1,-10.8,-1.5,1.0,1.4,i,-1.3,6.9,-20.5,
COc1ccc(/C=N/NC(=O)CSCC(=O)Nc2ccccc2)cc1OC,-11.5,-10.3,2.6,-2.1,i,-3.5,-0.5,1.8,
COc1ccc(NC(=O)COc2ccc3oc(=O)cc(C)c3c2)cc1,0.9,-0.5,6.8,-6.2,i,2.2,-0.6,-6.3,
COc1ccc(C(=O)Nc2ccc(S(=O)(=O)N3CCCCC3)cc2)cc1OC,6.7,3.8,4.9,-1.8,i,-3.3,7.4,-64.1,
O=C(CN1CCCCCC1)Nc1cccc2c1OCO2,-12.8,-6.8,0.8,0.7,i,-11.4,11.6,25.5,
O=C(CNC(=O)c1cccs1)N/N=C/c1ccccc1[N+](=O)[O-],-13.9,2.8,-0.5,1.0,i,2.5,-3.5,-21.4,
COc1cccc(/C=C/C(=O)OCC(=O)NCCC2=CCCCC2)c1OC,-6.0,-7.5,-3.6,0.0,/,/,/,/,
Cn1nc(C(=O)O)c(=O)n(C)c1=O,-3.7,/,1.2,2.9,/,/,/,-9.0,
CCCS(=O)(=O)N1CCc2ccc(NC(=O)C3CCCO3)cc2C1 (centres undefined),3.1,-7.6,0.6,1.8,i,0.6,2.1,/,
CCN(C(=O)COC(=O)C1CCN(S(=O)(=O)c2ccc(C)c(C)c2)CC1)C1CCS(=O)(=O)C1 (centres undefined),/,/,0.5,-0.5,i,/,/,-7.3,
O=C(NCc1nnc(SCC(=O)N2CCc3ccccc32)o1)c1ccco1,-4.8,4.0,-2.3,-3.0,i,-8.0,-3.9,12.8,
O=C(Nc1sc2c(c1C(=O)O)CCCCC2)c1cccnc1,-11.7,-6.9,2.3,-6.0,i,2.6,1.2,/,
COC(=O)[C@@H](N)CS,-18.4,-2.4,0.5,6.0,i,-2.2,-3.5,/,
COc1ccc(S(=O)(=O)N(CC(=O)Nc2ccc(S(=O)(=O)N3CCOCC3)cc2)Cc2ccc(F)cc2)cc1,1.4,9.2,4.8,-5.8,i,-1.6,5.4,1.6,
CC1CCc2c(sc(N)c2C(N)=O)C1 (centres undefined),-10.3,3.2,-9.5,2.7,i,26.4,36.2,/,
